From PubChem BioAssay
TDP1 inh – blocks human tyrosyl-DNA phosphodiesterase 1. AID 485290. hit rate 0.28% among 350,000. Q9NUW8. Potency, µM (top dose mostly 130 µM), for inactives: top-dose activity change, negative = inhibition, actives largely listed as inhibitors. recombinant TDP1, AlphaScreen DNA substrate cleavage; further: nearly all actives have a fitted effect of over 40% in size
Target sequence (Q9NUW8 whole entry, looked up): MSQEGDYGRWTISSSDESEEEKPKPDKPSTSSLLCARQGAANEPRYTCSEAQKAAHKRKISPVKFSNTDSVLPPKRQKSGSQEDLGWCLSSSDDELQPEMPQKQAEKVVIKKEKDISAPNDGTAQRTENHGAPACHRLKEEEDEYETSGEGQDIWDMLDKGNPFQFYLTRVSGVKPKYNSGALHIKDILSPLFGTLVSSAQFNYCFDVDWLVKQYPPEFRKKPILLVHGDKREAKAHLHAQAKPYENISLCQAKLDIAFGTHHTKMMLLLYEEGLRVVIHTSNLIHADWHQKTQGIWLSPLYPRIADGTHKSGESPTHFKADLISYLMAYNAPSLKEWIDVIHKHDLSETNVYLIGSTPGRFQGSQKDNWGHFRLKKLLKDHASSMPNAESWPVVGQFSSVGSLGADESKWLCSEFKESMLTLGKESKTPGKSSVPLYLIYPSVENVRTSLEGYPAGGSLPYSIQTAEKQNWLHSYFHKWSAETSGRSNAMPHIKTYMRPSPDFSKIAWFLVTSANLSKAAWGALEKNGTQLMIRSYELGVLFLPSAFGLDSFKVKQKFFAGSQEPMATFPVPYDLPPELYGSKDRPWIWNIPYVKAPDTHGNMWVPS
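Tdp1 1 nM final; 15 min RT w/ cpd; substrate 15 nM, 5 min; beads 10 ug/ml, 10 min; AlphaScreen read. Neg ctrl: no enzyme.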
N370S GC – N370S glucocerebrosidase modulation, Gaucher chaperone candidate; P04062; hit rate 0.092% among 330,000; Potency, µM (doses to about 59.4 µM), without a hit: top-dose activity change, negative = inhibition, actives largely listed as inhibitors; AID 2101; N370S GC spleen homogenate, 4MU-glucoside fluorescence;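 further: 0% = full enzyme activity and -100% = no enzyme basal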
Active calls of the source: *; ? = inconclusive; . = no result given; & = joins results of further samples; [ ] = another dose, or the depositor's remark. The call rests on the fitted dose curve; in most records, active means well fitted curve in the direction sought with a large enough effect; inconclusive means small, poorly fitted or top-dose-only effect, or another doubt; inactive means no such curve, though single readings can be large; an effect the other way counts as inactive or inconclusive. Unless noted, on the % scale 0 is the no-effect control and ±100 the full control effect; potency means the concentration at half of the fitted maximal effect. Not all compounds are listed; most or all hits stand in other tables.

TDP1 inh	N370S GC	mol
2%	-15%	CCOC(=O)C1CN(S(=O)(=O)c2cccs2)c2ccc(CC(=O)OC)cc2O1 (centres undefined)
0%	.	COc1cccc(OC)c1C(=O)OCC(=O)NCc1ccco1
8%	-10%	Cc1cc([N+](=O)[O-])cc([N+](=O)[O-])c1NCC(C)C
3%	-3%	CCN(CC)C(=O)Cn1cc(C(=O)C(=O)N(C)C2CCN(C)CC2)c2ccccc21
4%	10%	CCC(C(=O)NCCC1=CCCCC1)n1nc(C)c2c(C)n(-c3ccccc3)nc2c1=O (centres undefined)
2%	6%	COC(=O)CC1C(=O)NCCN1C(=O)Nc1ccc(Cl)c(Cl)c1 (centres undefined)
-3%	-25%	O=C(NCCS(=O)(=O)N1CCN(c2ccccc2)CC1)c1ccc2c(c1)OCO2
5%	-3%	OCCC1CN(Cc2cccc3nonc23)CCN1Cc1ccsc1 (centres undefined)
-5%	4%	O=C(N/N=C/c1ccco1)c1ccc(NC(=O)C2CC2)cc1
2%	3%[2.35 µM]	CCOc1ccc(NC(=O)CCC(=O)OC)cc1

(continued)
TDP1 inh	N370S GC	mol
6%	21%	CC1Cc2nc(SCC(=O)Nc3ccc4c(c3)OCCO4)n(C)c(=O)c2S1 (centres undefined)
5%	?	CC(=O)Nc1ccc(S(=O)(=O)Nc2ccc(S(=O)(=O)N3CCCCCC3)cc2)cc1
3%	0%	O=C(c1c[nH]c(C(=O)C(Cl)(Cl)Cl)c1)c1ccccc1Br
.	1%	COc1cc(NC(=O)C2Cc3ccccc3CN2S(C)(=O)=O)cc(OC)c1 (centres undefined)
3%	16%	CCOC(=O)c1c(/N=C/c2cc(C)ccc2O)sc2c1CCC2
9%	0%	Cc1cc(C)n(C(=O)c2ccc(S(=O)(=O)NCC3CCCO3)cc2)n1 (centres undefined)
5%	14%	Cc1cc(NC(=O)C(=O)NCCN2CCN(S(C)(=O)=O)CC2)ccc1Br
10%	1%	COc1ccc(C(=O)Nc2nnc(S(=O)(=O)N3CCCCCC3)s2)cc1OC
6%	6%	CC(C)c1c(O)nc(SCC(=O)N2CCOCC2)[nH]c1=O
-1%	4%	COc1cccc(N2CCN(S(=O)(=O)c3ccc4ccccc4c3)CC2)c1

Compounds from the list above containing an aryl methoxy group (4):
TDP1 inh	N370S GC	mol
0%	.	COc1cccc(OC)c1C(=O)OCC(=O)NCc1ccco1
.	1%	COc1cc(NC(=O)C2Cc3ccccc3CN2S(C)(=O)=O)cc(OC)c1 (centres undefined)
10%	1%	COc1ccc(C(=O)Nc2nnc(S(=O)(=O)N3CCCCCC3)s2)cc1OC
-1%	4%	COc1cccc(N2CCN(S(=O)(=O)c3ccc4ccccc4c3)CC2)c1

Next section
TDP1 inh	N370S GC	mol
10%	0%	CCOc1ccccc1NC(=O)Cn1nnc(-c2ccc(OCC)c(OCC)c2)n1
3%	-3%	Cn1c(C(=O)NCCCN2CCCC2=O)cc2c(=O)n(C)c3ccccc3c21
.	3%	O=C(CN1C(=O)C2CCCCC2C1=O)Nc1nc2ccc(F)cc2s1 (centres undefined)
5%	-11%	CCCCn1c(CCNC(=O)c2ccco2)nc2ccccc21
8%	23%	COc1ccccc1N=C1NC(=O)/C(=C/c2ccc(N(C)C)cc2)S1
-3%	6%	CC(=Nc1ccccc1)C1=C(O)CC(C)(C)CC1=O
1%	-5%	CCCc1cc(C(=O)Nc2ccc(C(=O)c3ccc(F)cc3)cc2)n(C)n1
.	-7%	O=C(NC1CCCC1)c1c(O)nc2sccn2c1=O
1%	.	COc1cccc(NC(=O)c2csnn2)c1
4%	0%	O=C(O)c1ccccc1C(=O)Nc1nc(-c2ccccc2)cs1

Other records follow.
TDP1 inh	N370S GC	mol
10%	-15%	CCCC(C(=O)NCc1ccco1)N(Cc1ccco1)C(=O)CNS(=O)(=O)c1ccccc1 (centres undefined)
3%	-4%	CC(Nc1ccc(Br)cn1)c1cc(Cl)ccc1O (centres undefined)
-7%	1%	O=C(NCc1ccc2c(c1)OCO2)C(=S)N1CCOCC1
0%	0%	CCCc1[nH]nc2c1C(c1ccc(O)cc1OCC)C(C#N)=C(N)O2 (centres undefined)
4%	4%	CCCc1nc2sc3c(c2c(=O)[nH]1)CCCC3
.	7%	Cc1cc(C)cc(C(=O)Nc2cccnc2Cl)c1
3%	-8%	COc1cc(NC(=O)c2cccnc2)c(Cl)cc1NC(=O)c1ccccc1
.	2%	Oc1ccc(Br)cc1/C=N/Nc1ccccn1
6%[0.0935 µM]	1%	COc1ccccc1NC(=O)Cc1nnc(SCC(=O)c2ccc(F)cc2)n1C
2%	?	CN1CCN(CCCNC(=O)c2ccc(/C=C3\Oc4ccccc4N(Cc4ccccc4F)C3=O)cc2)CC1

4 entries from above, in CSV form:
SMILES,TDP1 inh,N370S GC
Cc1cc(C)cc(C(=O)Nc2cccnc2Cl)c1,.,7%
COc1cc(NC(=O)c2cccnc2)c(Cl)cc1NC(=O)c1ccccc1,3%,-8%
Oc1ccc(Br)cc1/C=N/Nc1ccccn1,.,2%
COc1ccccc1NC(=O)Cc1nnc(SCC(=O)c2ccc(F)cc2)n1C,6%[0.0935 µM],1%

Next structures
TDP1 inh	N370S GC	mol
4%	4%	Cc1nn(CCOc2ccccc2)c(=O)n1-c1cccc(F)c1
3%	9%	COc1ccc(-n2c(Cc3cccn3C)nnc2SCC(N)=O)cc1
.	-9%	OC(COc1ccc(Br)cc1)Cn1ccnc1 (centres undefined)
0%	6%	NC(=O)CSC1=Nc2ccccc2C2=NC(c3ccccc3)C(=O)N12 (centres undefined)
8%	4%	CC(C)(C)C(=O)O/N=C(\N)c1ccc([N+](=O)[O-])s1
.	-27%	Cc1cc(S(=O)(=O)Nc2ccc(C(=O)NCc3ccncc3)cc2)ccc1F
-15%	-1%	CC(=O)COC(=O)c1ccc2noc(-c3ccccc3)c2c1
.	2%	COc1ccc(NC(=O)c2cc(C)no2)cc1Cl
.	-1%	Cc1ccc(NC(=O)c2cc3ccccc3cc2O)cc1
3%	-2%[2.35 µM]	CCOC(=O)C1CCN(C(=O)COc2ccc(N(C)S(=O)(=O)c3cccs3)cc2)CC1

Next entries
TDP1 inh	N370S GC	mol
.	9%	S=c1[nH]ccn1-c1cccc(Cl)c1Cl
4%	12%	O=C(NC(=S)N1CCCCC1)C12CC3CC(CC(C3)C1)C2
-1%	6%	COc1cc(/C=C/C(=O)OCC(=O)Nc2ccc3c(c2)OCCO3)ccc1O
6%	-2%	Cc1cc(C(=O)CCC(=O)N(C)CC(=O)Nc2ccc(OC(F)(F)F)cc2)c(C)s1
8%	2%	CCNS(=O)(=O)c1c(C)cc(C)c(N(C)S(=O)(=O)c2ccccc2)c1C
.	-16%	O=C(NCCc1ccc(Cl)cc1)c1ccc(CNc2c(N3CCOCC3)c(=O)c2=O)cc1
3%	1%	Cc1nc(NCCO)c(C#N)c2c1COC(C)(C)C2
2%	-3%	O=C(Nc1ccccc1N1CCN(C(=O)c2ccccc2)CC1)c1ccccc1Cl
6%[0.0935 µM]	3%	O=C(CNc1ccc(Br)cc1)c1ccc(Br)s1
3%	0%	Cc1cc([N+](=O)[O-])nn1CC(=O)Nc1c(C)n(C)n(-c2ccccc2)c1=O

(list continues)
TDP1 inh	N370S GC	mol
3%	-14%	CCOc1ccccc1Nc1ccnc2cc(Cl)ccc12
-5%	4%	COc1cccc(CC(=O)Nc2nc3ccccc3[nH]2)c1
0%	-3%	Cc1ccc(NC(=O)c2cc3cccc([N+](=O)[O-])c3[nH]2)cc1
.	-4%	COc1ccc(C=O)cc1CSc1ncccc1C(=O)O
4%[56.1 µM]	-4%	O=C(Nc1ccnn1C1CCN(Cc2ccc(CO)o2)CC1)c1ccc2c(c1)OCO2
.	2%	CCC1(C)NC(=O)N(CC(=O)Nc2sc3c(c2C(N)=O)CCC3)C1=O (centres undefined)
3%	-5%	CC(=O)N1CCCN(Cc2cn(-c3ccc(C)cc3)nc2-c2ccc(F)cc2)CC1
1%	0%	N/C(=N\OC(=O)CCC1CCCC1)c1cccnc1
3%	21%	O=C(CNC(=O)c1ccc(Br)o1)NCc1ccc(Cl)cc1Cl
0%	-5%	NC(=O)c1ccc(C(F)(F)F)cn1

Part of the list above in order of count of non-hydrogen atoms, rising:
TDP1 inh	N370S GC	mol
-7%	1%	O=C(NCc1ccc2c(c1)OCO2)C(=S)N1CCOCC1
5%	-11%	CCCCn1c(CCNC(=O)c2ccco2)nc2ccccc21
0%	6%	NC(=O)CSC1=Nc2ccccc2C2=NC(c3ccccc3)C(=O)N12 (centres undefined)

(next part)
TDP1 inh	N370S GC	mol
.	3%	O=C(OCC(=O)N1CCN(c2ccccc2)CC1)c1ccccc1OC(F)F
-11%	.	CCc1ccc(OCc2nc(-c3ccc(OC)c(OC)c3)no2)c(Br)c1
0%	-8%	Cc1ccc2c(c1)nnn2C1CCN(C(=O)C2CCCCC2)CC1
2%	6%	O=C(Cc1ccccc1)NC1c2ccccc2-c2ccccc21
0%	.	CC(C)(C)C(C(=O)Oc1ccccc1)c1ccccc1 (centres undefined)
-8%	-7%	COc1ccc(-n2nc(C(=O)NCC(=O)N(C)Cc3ccccc3)c3ccccc3c2=O)cc1
0%	-5%	O=C(CN(C(=O)c1csnn1)c1cccc(C(F)(F)F)c1)NCc1ccc(F)cc1
9%	-4%	CCc1cccc2c(C(=O)C(NCCCOC)c3ccccc3)c[nH]c12 (centres undefined)
1%	9%	CC(C)(C)SCCNC(=O)Nc1ccccc1
3%[56.1 µM]	13%	O=C(COc1cccc2cccnc12)N/N=C1\SCC(=O)N1Cc1ccco1

The list continues.
TDP1 inh	N370S GC	mol
7%	13%	C/C(=N/OC(=O)c1ccc(C)cc1)C(=O)c1ccc(Br)cc1
5%[0.0935 µM]	0%	O=C(NCc1ccccc1)C(c1cccnc1)N(C(=O)c1ccccn1)c1cccc(F)c1 (centres undefined)
3%	1%	COc1ccc2[nH]c(=O)c(CNc3cccc(C)c3)cc2c1
2%[56.1 µM]	-5%	CCOC(=O)N/N=C\c1cccc(OC)c1OC/C=C/c1ccccc1
-2%	-5%	COc1ccc(NC(=O)CN(c2ccc(C)cc2)S(C)(=O)=O)c(OC)c1
-3%	?	Cc1ccc(COC(=O)c2cc(S(=O)(=O)N3CCCCC3)ccc2N2CCOCC2)cc1
3%	8%	O=c1cc(CSc2ccccc2)[nH]c(=S)[nH]1
6%	7%	Cc1ccc(C2CC2C(=O)NN)cc1 (centres undefined)
.	-19%	O=C(O)c1ccc(CSc2nnc(-c3ccc(Cl)cc3)o2)cc1
-1%	1%	N#Cc1ccc(-c2csc(NC(=O)/C=C/c3cccs3)n2)cc1

Other records:
TDP1 inh	N370S GC	mol
10%	0%	COc1ccc2cc(C(=O)/C=C/c3cc(OC)c(OC)c(OC)c3)ccc2c1
3%	1%	Cc1nonc1N1CCN(Cc2cn[nH]c2-c2ccc3c(c2)OCO3)CC1
?	-5%	Cc1c(C)n2c3c(cccc13)CC2
8%	1%	O=C(Cn1ncc2c1-c1ccccc1OC2)N1CCN(Cc2ccc3c(c2)OCO3)CC1
3%	.	Cc1ccc(N2C(=O)CC(c3ccccc3F)C3=C2COC3=O)cc1Cl (centres undefined)
.	1%	COc1cc(NC(=O)CSC(=S)N2CCCC2)c(OC)cc1Cl
5%	-2%	O=C(Nc1nnc(SCc2ccc(Cl)cc2)s1)C1CC(=O)N(Cc2ccccc2)C1 (centres undefined)
1%	15%	Cc1ccc(NC(=O)CCCCCN2C(=O)[C@@H]3Cc4ccccc4CN3C2=O)c(Cl)c1
3%	-21%	CCC(C)n1ncn(-c2ccc(N3CCN(c4ccc(O)cc4)CC3)cc2)c1=O (centres undefined)
-8%	.	COc1cc(NC(=O)CSc2ncc3c(n2)-c2ccc(Cl)cc2N(Cc2ccccc2)S3(=O)=O)cc(OC)c1

Remaining list, next part.
TDP1 inh	N370S GC	mol
0%	1%	COc1ccc(C(=O)N/N=C/C2CC=CCC2)cc1OC (centres undefined)
4%	-12%	CCCn1c(C(O)c2cc(OC)ccc2OC)nc2ccccc21 (centres undefined)
5%[56.1 µM]	-11%	Cc1ccc(C)c(S(=O)(=O)N2CCN(C(=O)c3ccc(N4CCCC4)c([N+](=O)[O-])c3)CC2)c1
2%&5%	-3%	O=C(c1cc2ccccc2o1)N1CCN(Cc2ccccc2)CC1
1%	.	CCN(C[C@H]1N[C@@](CC)(C(=O)OC)[C@H]2C(=O)N(Cc3ccccc3)C(=O)[C@@H]12)S(=O)(=O)c1ccc(C(F)(F)F)cc1
-4%	3%	COc1ccc(Cl)cc1NC(=S)NCCO
3%	3%	CCn1nnnc1SCC(=O)N1CCN(c2ccccc2)CC1
.	-14%	CCN1CCN(Cc2nnc(-c3ccc(C)cc3)o2)CC1
0%	1%	COc1ccc(S(=O)(=O)NC(Cc2cnc[nH]2)C(=O)O)cc1 (centres undefined)
.	-2%	Clc1ccccc1OCCCOc1cccc2cccnc12
3%	-2%	COc1cc2c(cc1OC)C(C)N(C(=O)C1COc3ccccc3O1)CC2 (centres undefined)
4%	-2%	Cc1cccc(NS(=O)(=O)c2c(C(=O)N3CCOCC3)c(C)n(C)c2C)c1C

As a working copy, some entries already given.
TDP1 inh	N370S GC	mol
0%	1%	COc1ccc(S(=O)(=O)NC(Cc2cnc[nH]2)C(=O)O)cc1 (centres undefined)
.	-2%	Clc1ccccc1OCCCOc1cccc2cccnc12
3%	-2%	COc1cc2c(cc1OC)C(C)N(C(=O)C1COc3ccccc3O1)CC2 (centres undefined)
4%	-2%	Cc1cccc(NS(=O)(=O)c2c(C(=O)N3CCOCC3)c(C)n(C)c2C)c1C
